# Assay outcomes as filed in PubChem.
# Mtb growth = Confirmatory growth inhibition assay against Mycobacterium tuberculosis H37Rv, potency (AID 1949) | 100,000 tested, 1.6% active | inhibition, % at 10 µg/mL, or IC50 in µg/mL where a hit was titrated | most inactive calls were filed without a number and no value below 0 was filed;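 active = confirmed in a dose series; inconclusive = about 50% or more but not retested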;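 also: bacteria grown 7 days with compound before Alamar blue readout; 0% = untreated bacteria and 100% = reference antibiotic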
# Starred values were filed as active, the others as inactive; i = inactive; ? = inconclusive.
SMILES,Mtb growth
CC(C)(C)CC(=O)Nc1ccccc1-c1ccccc1,i
O=C(Nc1nc2ccccc2s1)Nc1ccc(F)cc1F,i
COc1ccc(NS(=O)(=O)c2ccc(NC(=O)c3ccc(Cl)cc3)cc2)cc1,2%
FC(F)(F)c1nc(N2CCOCC2)nc2c1CCCCC2,i
COc1cc(CNC23CC4CC(C)(CC(C)(C4)C2)C3)cc(Br)c1OCC(N)=O,i
CCN(CC(=O)Nc1ccccc1OC)S(=O)(=O)c1ccc2ccccc2c1,2%
Cc1ccc(S(=O)(=O)N(C)c2ccc(C(=O)Nc3ccc4c(c3)OCCO4)cc2)cc1,7%
S=c1[nH]nc(COc2ccccc2I)n1-c1ccccc1,i
O=C(CCC1CCCC1)N1CCN(C(=O)COc2ccc3ccccc3c2)CC1,i
OC1(C#CCN2CCCCCC2)CCCCC1,i
Cc1cc(=O)oc2c(C)c(OC(=O)c3ccco3)ccc12,i
COc1ccc(N2CCN(CC(O)COc3cc(C)ccc3C(C)C)CC2)cc1 (centres undefined),?
COc1cc(F)ccc1S(=O)(=O)NC1CC(C)(C)NC(C)(C)C1,i
O=S(=O)(Nc1cccc(Cl)c1)c1cccc2ccccc12,4%
COc1ccc(C(=O)C(C)S(=O)(=O)c2ccc(C)cc2)cc1 (centres undefined),i
CCOc1ccccc1N(CC(=O)Nc1ccccc1C(=O)N1CCCC1)S(C)(=O)=O,i
O=C1CC(c2ccccc2[N+](=O)[O-])c2cc3c(cc2N1)OCCO3 (centres undefined),i
OCCNc1nc(Nc2ccccc2)nc(N2CCCCC2)n1,i
O=C(O)C1C2CCC(C2)C1C(=O)NCC1CCCO1 (centres undefined),i
CCOc1ccc(NS(=O)(=O)c2cc(C)c(C)cc2C)cc1,1%
CCN(CC)C(=O)CSc1nc(O)cc(=O)n1C,i
Cc1ccc([N+](=O)[O-])cc1NC(=S)NC(=O)C(C)(C)C,i
C=CCn1c(SCC(=O)c2ccccc2)nnc1C(C)NC(=O)c1ccc(C)cc1 (centres undefined),i
O=C(NCCOc1ccccc1)C(=O)NC1CC1,0%
Cc1noc(C)c1C(=O)NCc1cccs1,0%
C=CCNC(=O)c1ccccc1NC(=O)c1ccc(OC)cc1,2%
CC1(c2ccccc2NC(=O)c2ccccc2)CC1,i
CC(C)NC(=O)CCSc1ccccc1,i
CC(=O)c1c(C)n(-c2ccccc2)c2ccc(OCC(O)CN3CCC(C)CC3)cc12 (centres undefined),3%
O=C1CC(c2ccccc2[N+](=O)[O-])c2c(ccc3ccccc23)N1 (centres undefined),1%
CC1CCCN(C(=O)Cn2nnc(-c3ccccc3Cl)n2)C1 (centres undefined),0%
COc1ccc(Cl)cc1NC(=S)NCCO,i
CS(=O)(=O)N1CCN(c2ccccc2NC(=O)c2cccs2)CC1,2%
CCCN1CCN(C(=S)Nc2ccc(C(C)CC)cc2)CC1 (centres undefined),i
O=C1CCC(=O)N1OCCCSc1ccc(Cl)cc1,4%
CC(C)(C)NC(=O)CSc1nnc(CCc2ccccc2)n1Cc1ccccc1,i
CCCCc1ccc(-n2c(-c3ccncc3)n[nH]c2=S)cc1,i
COc1ccc(/C(C)=N/N=C(\N)SC2CC(=O)N(c3ccc(C(=O)O)cc3)C2=O)cc1 (centres undefined),i
COC(=O)c1ccc(NC(=O)C(C)Sc2ncn(-c3ccccc3)n2)cc1 (centres undefined),i
CCCOc1ccc(C(=O)NCC2(c3ccc(OC)cc3)CCOCC2)cc1,i
CCOC(=O)N1CCN(CC(O)COc2ccc(Cl)c(C)c2)CC1 (centres undefined),i
CSc1ccc(S(=O)(=O)NC2CC3CCC2C3)cc1 (centres undefined),i
CCCCN(C1CCS(=O)(=O)C1)S(=O)(=O)c1ccc(C)cc1 (centres undefined),i
Cc1c(F)cccc1NC(=O)OCc1ccccc1,i
CCCc1cc(C(=O)OC)c(NC(=O)c2ccc3c(c2)OCO3)s1,i
O=C(NCCOc1ccccc1)c1cc2ccccc2oc1=O,i
C=CCn1c(SCC(=O)Nc2ccc(I)cc2C(C)C)nnc1-c1ccccc1O,i
CC(=O)c1cccc(NC(=O)COc2ccc([N+](=O)[O-])cc2)c1,?
Cc1cc(C(=O)Nc2cccc(Cn3cccn3)c2)cs1,i
O=C(NC1CC1)c1ccccc1Br,2%
O=C(O)c1cccc(NS(=O)(=O)c2ccc(N3C(=O)CCC3=O)cc2)c1,i
COC(=O)Cc1ccc(NC(=S)N2CCN(c3ccc(F)cc3)CC2)cc1,i
CCOc1nc(NCc2ccccc2)nc(NCc2cccnc2)n1,0%
O=C(CSc1nc2ccccc2[nH]1)N1CCc2ccccc2C1,i
O=C(Nc1ccccc1OC(F)F)C1Cc2ccccc2CN1S(=O)(=O)c1ccc(F)cc1 (centres undefined),3%
CCCCC(=O)Nc1ccc(NC(=O)COc2ccccc2Cl)cc1OC,4%
Cc1cccc(NCc2ccc(N(C)C)cc2)n1,i
COc1ccccc1OCC#CCCOn1nnc2ccccc21,0%
COc1ccc(CCNC2CC(=O)N(c3ccc(Cl)cc3)C2=O)cc1OC (centres undefined),i
O=C1CC(c2cccc(Cl)c2)c2cc3c(cc2N1)CCC3 (centres undefined),?
# The listing continues:
SMILES,Mtb growth
O=C(NCCC1=CCCCC1)C1CCCN(S(=O)(=O)c2ccc(F)cc2)C1 (centres undefined),i
C=CCn1c(COC)nnc1SCC(=O)c1ccc(F)cc1,i
COC(=O)c1c(NC(=O)CCc2ccc(OC)cc2)sc2c1CCC2,3%
O=C(O)CC(C(=O)Nc1ccc(Cl)cc1)N1CCCC1 (centres undefined),i
COC(=O)c1cc(-c2ccccc2)sc1N,i
Cc1ccccc1C(=O)N1CCC(C(=O)N2CCc3ccccc3C2)CC1,i
CC1CCCN(C(=O)COc2ccc3ccccc3c2)C1 (centres undefined),0%
Cc1cccc(C)c1OCC(O)CN1CCN(c2ccccn2)CC1 (centres undefined),i
CCOC(=O)C(=O)Nc1cc(C)ccc1C,i
N#CC1=C(N)Oc2cc(O)ccc2C1c1ccc(Br)cc1 (centres undefined),i
Clc1ccc(OCCOCCNCc2ccccc2)c2ccccc12,6.1µg/mL*
O=C(COc1ccccc1Br)N1CCCCC1,i
O=C(Nc1ccc(F)cc1)C(=S)N1CCCCC1,i
O=C(NCc1cccc(CNC(=O)C2CCCC2)c1)C1CCCC1,i
O=C1c2ccccc2C(=O)N1CCCn1c(=O)oc2ccccc21,i
C=CCn1c(=N)n(CC(=O)c2ccccc2)c2ccccc21,2%
CCC(C)c1ccccc1NC(=O)COc1ccc(Cl)cc1C (centres undefined),10%
Cc1ccccc1C(=O)N1CCC(C(=O)Nc2ccc(I)cc2)CC1,i
CCN(c1ccccc1)S(=O)(=O)c1ccc(NC(=O)c2ccccc2OC)cc1,i
Cc1ccc(NS(C)(=O)=O)cc1Cl,i

# Brought forward from above: two compounds, followed by the next part.
SMILES,Mtb growth
CCN(c1ccccc1)S(=O)(=O)c1ccc(NC(=O)c2ccccc2OC)cc1,i
Cc1ccc(NS(C)(=O)=O)cc1Cl,i
O=C(NCCC(c1ccc(F)cc1)c1ccco1)c1cccs1 (centres undefined),i
CCCC(=O)Nc1ccc(Cl)c(NC(=O)c2cccc([N+](=O)[O-])c2C)c1,i
CCC(C)c1ccc(OCC(=O)Nc2ccc(NC(=O)Cc3ccccc3)cc2)cc1 (centres undefined),i
COc1ccc(CC(=O)Nc2cccc(C#N)c2)cc1,i
O=C1CCCC2=C1C(c1ccncc1)n1c(nc3ccccc31)N2 (centres undefined),i
O=C(O)C1CCN(S(=O)(=O)c2cccc3cccnc23)CC1,0%
O=C(NCc1cccnc1)c1csc2ccccc12,i
Cc1cc(F)ccc1NC(=O)c1ccco1,i
CCc1ccccc1NS(=O)(=O)c1ccc(OC)c(Br)c1,i
CCOc1ccc(C(=O)Nc2ccc3c(c2)C(=O)N(C)C3=O)cc1Cl,i
COCC(C)NCc1cc(Br)c(OC)cc1OC (centres undefined),i
COc1ccc2nc(NS(=O)(=O)c3ccc(NC(C)=O)cc3)sc2c1,i
Cc1ccc(OCC(=O)N(Cc2nc(-c3ccc(C)cc3)no2)C(C)C)cc1,i
C=C1C2(C(=O)Nc3cccc(C)c3C)CCC(C2)C1(C)C (centres undefined),i
Clc1ccccc1-c1nc2ccccc2n1CCOc1ccccc1,?
C=CCn1c(SCC(=O)Nc2ccc(C)c(Cl)c2)nnc1-c1cc(Br)ccc1O,i
CCC(=NCCc1ccc(F)cc1)c1c(O)n(CCC2=CCCCC2)c(=O)[nH]c1=O,0%
CCOC(=O)c1c(-c2ccc(C)cc2)csc1NC(=O)C(C)Oc1ccccc1OC (centres undefined),11%
Cc1noc(C)c1CSc1nc2sc3c(c2c(=O)n1-c1ccccc1)CCCC3,0%
Cc1ccc(C)c(OCCCCN2CCNCC2)c1C,i

# Entries listed so far that contain a furan ring, fused or not:
SMILES,Mtb growth
Cc1cc(=O)oc2c(C)c(OC(=O)c3ccco3)ccc12,i
O=C(NCCC(c1ccc(F)cc1)c1ccco1)c1cccs1 (centres undefined),i
Cc1cc(F)ccc1NC(=O)c1ccco1,i

# (listing goes on)
SMILES,Mtb growth
COc1ccccc1C(=O)N1CCN(C(=O)c2ccc(F)cc2)CC1,i
Cc1ccc(NC(=O)CC2NC3CCCCC3NC2=O)cc1C (centres undefined),i
CCOC(=O)c1ccc(NS(=O)(=O)c2ccc(Oc3ccccc3)cc2)cc1,1%
NCCNc1cc2[nH]c(=O)[nH]c2cc1[N+](=O)[O-],i
O=C(Nc1ccc2oc(-c3ccccc3)nc2c1)c1ccc(F)cc1,i
COc1ccc(NC(=O)C(=O)N2CCCCC2)cc1Cl,i
CC(C)c1ccc(NC(=O)C2CC(=O)N(C(C)C)C2)cc1 (centres undefined),i
O=S(=O)(NCCN1CCOCC1)c1ccc(Cl)c(Cl)c1Cl,i
CCc1cccc(CC)c1NC(=O)CN(c1ccccc1Cl)S(=O)(=O)c1ccc(C)cc1,i
CC(C)Oc1cccc(C(=O)NC(=S)Nc2c(F)cc(F)cc2Br)c1,i
CC1CCCN(C(=O)c2c(F)cccc2F)C1 (centres undefined),i
O=C1CC(N2CCN(c3ccc(C(F)(F)F)cc3[N+](=O)[O-])CC2)C(=O)N1c1ccc(F)c(Cl)c1 (centres undefined),i
COCc1nc2ccccc2n1Cc1cccc2ccccc12,i
CCn1c(SCC(N)=O)nnc1-c1sc2cc(Cl)ccc2c1Cl,i
Cc1sc2ncnc(SCC(=O)Nc3sc4c(c3C#N)CCCC4)c2c1-c1ccccc1,i
CC(=O)NS(=O)(=O)c1ccc(NC(=O)CC(c2ccccc2)c2ccccc2)cc1,i
COc1cc(/C=C(\C#N)C(N)=S)ccc1OCc1ccccc1Cl,2%
Cc1ccccc1CSCCNC(=O)c1ccc(Cl)cc1,i
COc1ccc(S(=O)(=O)NCc2ccncc2)cc1I,i
Cc1cccc(CN(CC(=O)N2CCCCCC2)S(=O)(=O)c2ccc(Cl)cc2)c1,3%

# Random excerpt: 14 entries already listed
SMILES,Mtb growth
Cc1ccccc1CSCCNC(=O)c1ccc(Cl)cc1,i
COc1ccc(S(=O)(=O)NCc2ccncc2)cc1I,i
CCc1cccc(CC)c1NC(=O)CN(c1ccccc1Cl)S(=O)(=O)c1ccc(C)cc1,i
COc1ccc(NC(=O)C(=O)N2CCCCC2)cc1Cl,i
CC1CCCN(C(=O)c2c(F)cccc2F)C1 (centres undefined),i
O=C1CC(N2CCN(c3ccc(C(F)(F)F)cc3[N+](=O)[O-])CC2)C(=O)N1c1ccc(F)c(Cl)c1 (centres undefined),i
CC(C)c1ccc(NC(=O)C2CC(=O)N(C(C)C)C2)cc1 (centres undefined),i
O=C(Nc1ccc2oc(-c3ccccc3)nc2c1)c1ccc(F)cc1,i
CC(=O)NS(=O)(=O)c1ccc(NC(=O)CC(c2ccccc2)c2ccccc2)cc1,i
CC(C)Oc1cccc(C(=O)NC(=S)Nc2c(F)cc(F)cc2Br)c1,i
NCCNc1cc2[nH]c(=O)[nH]c2cc1[N+](=O)[O-],i
COc1ccccc1C(=O)N1CCN(C(=O)c2ccc(F)cc2)CC1,i
CCOC(=O)c1ccc(NS(=O)(=O)c2ccc(Oc3ccccc3)cc2)cc1,1%
Cc1cccc(CN(CC(=O)N2CCCCCC2)S(=O)(=O)c2ccc(Cl)cc2)c1,3%

# Following part:
SMILES,Mtb growth
COc1ccc(CC(=O)Nc2cccc(NC(=O)COc3ccccc3)c2)cc1,4%
Cc1ccc(C(=O)COc2ccc([N+](=O)[O-])cc2)cc1,i
N#CC1=C(N)N(c2ccc(Cl)cc2)C(=O)C1,i
Cn1c(SCc2nc3ccccc3s2)nnc1-c1cccnc1,i
O=C(CCn1cnc2ccccc2c1=O)Nc1ccccc1F,i
Cc1ccccc1OCC(=O)Nc1cc(Cl)ccc1Oc1ccccc1,1%
Cc1ccc(CC23CN4CCN(CC(C4)C2O)C3)c(C)c1 (centres undefined),i
O=CNC(c1ccccc1)c1ccc(Cl)cc1Cl (centres undefined),2%
O=C(Nc1ccc(N2CCN(c3ccc(O)cc3)CC2)cc1)Oc1ccccc1,i
O=C(NC(=S)Nc1ccc(-c2nc3ccccc3[nH]2)cc1)c1ccc(F)cc1,1%
O=[N+]([O-])c1ccc(S(=O)(=O)NCCSCc2ccco2)cc1,0%
Cc1nc(NC(=O)c2ccc(F)cc2)nc2cc3c(cc12)OCO3,i
CCOC(=O)c1ccc(NC(=S)N2CCN(Cc3ccc(Cl)cc3)CC2)cc1,i
CC(C)(C)c1ccc(S(=O)(=O)Nc2ccc3c(c2)OCO3)cc1,1%
CCOc1ccc(C(=O)Nc2ccc3oc(-c4ccc(OC)c(Cl)c4)nc3c2)cc1[N+](=O)[O-],i
CCOC(=O)c1ccc(NCc2ccncc2)cc1,23%
O=C(C1CCCO1)N1CCN(C(=S)Nc2ccc(S(=O)(=O)Nc3ncccn3)cc2)CC1 (centres undefined),i
COc1ccc(Nc2nc(OC)nc(OC)n2)c(OC)c1,i
Cc1ccccc1NC(=O)C(=O)NC(C)C,i

# Not all compounds are listed. The share of hits here may be higher or lower than overall.
